# Screens from PubChem.
# GIV Gai3 FP: inhibitors of GIV GBA-motif binding to rat Galpha-i3; percent of control (FP), % (test concentration not listed); AID 1224905; P08753; Galpha-i3/FITC-GIV peptide fluorescence polarization, 90 min; stronger effect = lower value; scaled: aluminum fluoride 0%, vehicle 100%; hit rate 0.42% among 210,000;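 active = replicate mean at 85% of control or lower, very high polarization wells dropped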;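 also: wells of about 15 µL received 100 nL stock; the first replicate is given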
# Target sequence (P08753 whole entry, looked up): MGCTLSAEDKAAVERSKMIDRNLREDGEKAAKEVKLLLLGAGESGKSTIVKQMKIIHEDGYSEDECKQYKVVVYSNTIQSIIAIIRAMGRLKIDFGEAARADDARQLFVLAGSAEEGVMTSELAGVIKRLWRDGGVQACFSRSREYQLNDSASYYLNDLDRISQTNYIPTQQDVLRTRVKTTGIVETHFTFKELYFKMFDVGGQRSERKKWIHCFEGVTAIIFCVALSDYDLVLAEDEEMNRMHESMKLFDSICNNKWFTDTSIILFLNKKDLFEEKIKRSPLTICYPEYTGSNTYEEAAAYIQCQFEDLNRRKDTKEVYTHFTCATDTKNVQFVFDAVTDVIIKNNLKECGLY
# Sa growth 42C: inhibitors of Staphylococcus aureus growth at 42 °C; S. aureus RN4220 growth, OD600, 20 h; stronger effect = lower value; relative growth, % (concentration not given with the values); hit rate 0.53% among 170,000;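 active = growth at 42 °C up to 50% and 20 or more points under that at 30 °C, or under 10% at both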;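 also: 300 nL library stock went into each well; scaled to the means of positive and negative controls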
# HCMV NEC inh: disrupts HCMV UL50-UL53 complex binding. HTRF UL50-UL53 interaction, normalized percent inhibition. inhibition, % (no concentration beside the values). hit rate 0.15% among 190,000;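 active = both replicates at 50% or more, plus weaker picks with an unusually low signal ratio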;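 also: stock transfer was 100 nL into about 20 µL; 0% = negative control wells and 100% = wells with untagged competitor protein; inactives centre near -12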
# Sa growth 42C second temp: also measured in Sa growth 42C; calls as there; relative growth, %; measured here: growth at 30 °C;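 optical density after 20 h as mean of two plates; 100% = untreated growth and lower means inhibition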
# * = called active by the depositor; / = no result given; & = joins results of further samples.
SMILES,GIV Gai3 FP,Sa growth 42C,Sa growth 42C second temp,HCMV NEC inh
CCOc1ccc2oc(=O)cc(CN(CCCN3CCOCC3)Cc3ccco3)c2c1,105,99,72,-15
N=c1oc(=N)c2ccccc2o1,101,74,60,/
Cn1nc(C(=O)NCc2ccccc2)c2c1CCN(C(=O)Nc1ccccc1Cl)C2,107,/,/,-36
COCc1nnc(C(=O)Nc2ccc(C(=O)NCCc3c[nH]c4ccc(Cl)cc34)cc2)s1,103,/,/,-9
Cc1cc(Nc2ccc(NNC(=O)c3ccc(F)cc3)nn2)n(-c2ccccc2)n1,/,78,95,-18
C=C[C@@]1(C)CC(=O)[C@@]2(O)[C@](C)(O1)[C@@H](OC(C)=O)[C@@H](O)C1C(C)(C)CC[C@H](O)[C@@]12C (some centres not stated),/,89,92,-25
CN1CCCC(OC(=O)c2ccccc2I)C1 (configuration not stated),/,102,99,10
COc1cccc(CNC(=O)c2ccc3c(c2)nnn3C2CCCC2)c1,104,104,97,/
O=C1CN(Cc2c(-c3ccccc3)[nH]c3ccccc23)CCN1,/,84,84,-18
COc1ccc(CSc2nnc(SCc3cc(C)on3)s2)cc1,/,98,91,-20
CN1CCN(Cc2c(O)ccc3c(=O)c(Oc4ccccc4Br)c(C(F)(F)F)oc23)CC1,100,/,/,-22
O=C(O)c1cccnc1-c1nc2ccccc2s1,/,84,86,-19
CCCc1cc(Sc2ccc(N)cc2)n2ncnc2n1,101,/,/,-20
Cc1ccccc1Cn1c(SCc2ccc(C(=O)NC(C)c3ccccc3)cc2)nc2ccncc21 (configuration not stated),105,100,91,-27
COc1ccc(-c2cc(C)no2)cc1S(=O)(=O)N1CC(C)Oc2ccccc21 (configuration not stated),107,116,92,/

# 3 entries from above, arranged by length of the SMILES, lowest first:
SMILES,GIV Gai3 FP,Sa growth 42C,Sa growth 42C second temp,HCMV NEC inh
COc1ccc(CSc2nnc(SCc3cc(C)on3)s2)cc1,/,98,91,-20
CCOc1ccc2oc(=O)cc(CN(CCCN3CCOCC3)Cc3ccco3)c2c1,105,99,72,-15
Cn1nc(C(=O)NCc2ccccc2)c2c1CCN(C(=O)Nc1ccccc1Cl)C2,107,/,/,-36

# (cont.)
SMILES,GIV Gai3 FP,Sa growth 42C,Sa growth 42C second temp,HCMV NEC inh
CCC1CCCCN1C(=O)Cn1c(=O)n(CC2CCC(C(=O)NC)CC2)c(=O)c2sccc21 (configuration not stated),99,92,90,/
CCOC(=O)c1ccc(N=Cc2ccccn2)cc1,102,108,90,/
CC(C)N(C(=O)CSc1ncccc1C(=O)O)c1ccccc1,/,104,91,-16
c1cnc2c(OCCN3CCCCC3)cccc2c1,106,101,85,-19
Cc1nn(CC(=O)O)c2ccccc12,110,104,91,-23
CC(=O)OCC12C3C4C5C3C13CC53C2C4(F)F (configuration not stated),/,66,94,-14
CCN1CCN(C(=O)c2ccc3c(c2)N(Cc2cc(C)ccc2C)C(=O)c2ccccc2S3=O)CC1 (configuration not stated),99,104,76,-19
Cc1nn(C)c2nc(OC(C)C(=O)NC3CCCCC3)cc(C(F)(F)F)c12 (configuration not stated),103,/,/,-21
Cc1cc(Cl)ccc1NC(=S)NCCCO,102,125,77,-4
Cc1cc(C(=O)COc2ccc3c(c2)CCC3)c(C)n1C,/,91,95,10
COc1ccc(Oc2coc3cc(OCC(=O)O)ccc3c2=O)cc1,100,97,92,-25
O=C(NC1CCCCC1)Oc1ccccc1,99,95,88,-12
O=C(c1ccc(F)cc1Cl)N1CCCC1,/,112,92,-15
C=CCn1c(=O)[nH]c2nc3cc(N=CN(C)C)c(C)cc3nc2c1=O,-16*,109,82,/
O=S1(=O)C[C@H](N2CCc3ccccc3C2)[C@@H](S(=O)(=O)c2ccc(Cl)cc2)C1,102,/,/,8
Cc1ccc(S(=O)(=O)/N=C/c2ccccc2O)cc1,105,113,104,-15
Cc1ccc(C(=O)c2sc(Nc3ccccc3)nc2N)cc1,101,/,/,-5
COC(=O)c1ccc(NC(=O)CCc2c(C)nn(-c3ccc(N4CCCC4)nn3)c2C)cc1,100,94,87,/
N#Cc1cc(C#N)c(SCC(=O)NCCN2C(=O)CSC2=O)nc1N,/,69,85,-42
CCOc1ccc2nc(NC(=O)c3sc(COc4cccc(C)c4)nc3C)sc2c1,107,/,/,-20
CCN(CC)S(=O)(=O)c1ccc(NC(=O)COc2ccc(Cl)cc2Cl)cc1,/,95,90,0
CCC(C)n1c(=O)[nH]c2c1c(=O)n(C)c(=O)n2C (configuration not stated),105,102,89,-9
COc1ccccc1NC(=O)/N=C1\NC(=O)C(C(C)C)O1 (configuration not stated),/,49,28,-29
Cc1c(C)n(C)c2ccc(C(=O)NC3CC3)cc12,109,/,/,-9
Cc1cc(-c2onc(C)c2C(N)=S)no1,103,94,90,-16
CCC(=O)Nc1ccc(CC)cc1-c1nc2ccccc2n(C(C)C(=O)Nc2cccc(C)c2C)c1=O (configuration not stated),104,/,/,1
Cc1ccc(OCc2ccc(C(=O)NC(c3ccccc3)c3ccccc3)o2)cc1C,101,110,87,/
Fc1ccc(CNc2ncnc3onc(-c4ccc(F)cc4)c23)cc1,101,99,93,/
N#Cc1cc(Sc2ccccn2)c(Sc2ccccn2)cc1C#N,112,108,88,7
CCc1ccccc1N1CC(c2nc3ccccc3[nH]2)CC1=O (configuration not stated),104&101,93,80,-4

# One compound at a time, from the list above. Order of screens: GIV Gai3 FP, Sa growth 42C, Sa growth 42C second temp, HCMV NEC inh
# Shown for Cc1ccc(S(=O)(=O)/N=C/c2ccccc2O)cc1 = 105, 113, 104, -15
# Shown for Cc1nn(CC(=O)O)c2ccccc12 = 110, 104, 91, -23
# Shown for Cc1ccc(OCc2ccc(C(=O)NC(c3ccccc3)c3ccccc3)o2)cc1C = 101, 110, 87, /
# Shown for N=c1oc(=N)c2ccccc2o1 = 101, 74, 60, /
# Shown for COc1ccc(CSc2nnc(SCc3cc(C)on3)s2)cc1 = /, 98, 91, -20

# Continued:
SMILES,GIV Gai3 FP,Sa growth 42C,Sa growth 42C second temp,HCMV NEC inh
Cc1ccc(CC(=O)N(Cc2nc(-c3ccc(C)cc3)no2)C(C)C)cc1,98,96,89,-31
CCN(Cc1ccccc1)C(=O)Cn1cc(S(=O)(=O)Cc2cccc(Cl)c2)c2ccccc21,101,101,102,/
c1csc(NC2CCCCC2)n1,/,83,75,-6
CCOC(=O)c1sc(=Nc2ccccc2)n(-c2ccccc2)c1C,100,92,86,-25
Cc1cc(OCC(=O)N(C)c2ccccc2)cc2c1C(=O)CC(C)(C)O2,102,106,92,-4
Cc1ccccc1CNC(=O)CSc1nc2ncccc2n2cccc12,112,/,/,-35
Cc1nc2sccn2c(=O)c1CCN1CCC(=C(c2ccc(F)cc2)c2ccc(F)cc2)CC1,105,97,78,-38&-12&-22
Cc1ccc2nc(COC(=O)c3c(-c4ccccc4)noc3C)cc(=O)n2c1,/,82,96,-14
O=C(NCCn1c(-c2ccncc2)nc2cccnc21)Nc1cccc(Br)c1,96,/,/,13
CCCN1C(=O)c2[nH]nc(-c3ccc(F)cc3)c2C1c1ccc(O)c(OCC)c1 (configuration not stated),100,95,75,-27
COCc1cc(=O)oc2cc(OC(C)=O)ccc12,99,114,98,-1
Cc1cc(C)n(-c2nc3nonc3nc2Nc2cccc(C)c2C)n1,111,/,/,-32
Cc1occc1-c1nnc(SC2CCCCN(C(=O)c3ccc(F)cc3)C2=O)n1C (configuration not stated),/,67,96,-26
CN(C)C(=O)C1CCN(S(=O)(=O)Cc2ccc(Cl)cc2)CC1,106,/,/,-11
CC1Sc2ccc(C(=O)NCCc3ccccn3)cc2NC1=O (configuration not stated),/,108,103,6
CCOC(=O)c1oc2ccc3c(c2c1C)C(=O)CC1(CCCC1)O3,107,99,97,/
COc1cccc(NC2C=CS(=O)(=O)C2)c1 (configuration not stated),/,100,95,-2
O=C(CCCn1c(=O)oc2ccccc21)Oc1ccc(-c2nnco2)cc1,/,84,83,-36
Cc1cc(C(=O)CSc2nnc(-c3cccc(F)c3)n2N)c(C)n1CC1CCCO1 (configuration not stated),/,91,82,-4
COC(=O)c1scc(S(=O)(=O)c2ccc(Cl)cc2)c1N,99,101,83,-9
CCC(=O)N1CCc2cc(S(=O)(=O)CCC(=O)N3CCN(c4cccc(C)c4)C(C)C3)ccc21 (configuration not stated),102,105,87,-19
O=C(CN1CCCN(S(=O)(=O)c2ccc(Br)s2)CC1)Nc1ccc(Cl)cc1,100,100,90,0
Cc1noc2c1C(c1ccc(O)cc1)C1=C(CC(c3ccc(Cl)cc3)CC1=O)N2 (configuration not stated),107,/,/,-6
CC(Sc1nnnn1C1CC1)C(=O)NC(c1ccccc1)c1ccccc1 (configuration not stated),/,89,88,-34
N#CCCN(C(=O)CCN1C(=O)/C(=C/c2ccc3c(c2)OCO3)SC1=S)c1ccccc1,101,/,/,-37
O=C1CN(C(=O)c2ccc(S(=O)(=O)N3CCCC3)cc2)C(c2ccccc2)c2cc(Br)ccc2N1 (configuration not stated),106,108,100,-16
CN=C(Nc1cc(C)nn1CCC#N)c1ccccc1F,/,108,84,-36
O=S(=O)(Nc1ccc(Cl)c(C(F)(F)F)c1)c1ccc(S(=O)(=O)N2CCOCC2)cc1,/,95,62,-2
CCOCCCN1C(=O)Cn2cccc2C1C(=O)NC1CCCCC1 (configuration not stated),104,/,/,-4
CCC(=O)Nc1sc2c(c1C#N)CCC2,/,89,84,-3
O=C(NC1CCCC1)c1ccc2c(c1)sc1nc(-c3ccccc3)cn12,103,99,88,/
O=S(=O)(c1ccccc1Cl)N1CCC2(CC1)Nc1cc(F)ccc1-n1cccc12,103,/,/,-21
O=C(NC(=O)N1CCCCC1)c1ccccc1,117,107,94,0
Cc1cccc(NC(=S)NN)c1,106,88,68,/
O=C(Cc1ccccc1)N/N=C/c1cccs1,102,98,91,-63
CN1CCN(c2ccccc2NC(=O)c2cccs2)CC1,103,103,95,0
Cc1ccc(C)c(N2CCN(C(=O)CN3C(=O)COc4ccc(S(=O)(=O)N5CCC(C)CC5)cc43)CC2)c1,105,101,91,7
Cn1c(=O)c2[nH]c(-c3ccc(S(=O)(=O)O)cc3)nc2n(C)c1=O,106,/,/,-56
COc1ccc(CNC(=O)c2ccc3c(c2)CCN3S(=O)(=O)c2ccc(Cl)cc2)cc1,107,107,100,-20
Cc1ccc(-c2cn3nc(C(F)(F)F)sc3n2)cc1,99,104,98,-5
COc1ccc2c(CNCc3cccs3)c(C(=O)O)n(Cc3ccccc3C)c2c1,108,129,110,/
CC1CCCN(Cc2nc3c(c(=O)n(C)c(=O)n3C)n2CC(N)=O)C1 (configuration not stated),109,104,99,-1
O=C(O)C1C2C=CC(C2)C1C(=O)N1CCN(C2CCCCC2)CC1 (configuration not stated),99,88,105,6
COc1cccc(OCc2nc3ccccc3n2Cc2ccccc2)c1,103,101,69,-4
CCCCN(C)c1nc(-c2ccco2)c2c(c1C#N)CC(C)(C)OC2,103,101,71,2
O=C(/C=C/c1ccccc1)/C=C/c1ccco1,120,/,/,10
Cc1nnc(NC(=O)c2ccccc2SCC(=O)NC2CCCCCCC2)o1,/,73,72,-12
CCOC(=O)c1sc(NC(=O)c2nc3ncccn3n2)c(C(=O)OC(C)C)c1C,102,108,91,/
COc1cc(NC(=O)c2nn(-c3ccc(F)cc3)c(=O)n(C)c2=O)cc(OC)c1OC,105,89,103,/
O=C(Cc1cccs1)NCc1ccc(-c2ccc(F)cc2F)o1,101,102,87,-5
CCCn1nnnc1NC(=O)c1cccnc1Cl,/,94,93,-14
CCc1ccc(CNc2ncnc3c2nc2n3CCCC2)cc1,108,109,78,/
Cc1ccc(NC(=S)NC2CC2)c(C)c1,99,110,99,-16
Cc1cc2c3c([nH]c2cc1S(=O)(=O)NCc1ccco1)CCCC3=O,99,107,78,-35
C=CCNC(=O)CSc1ccc(C)cc1,105,117,86,-46
CCOC(=O)c1ccc(NC(=O)Nc2nc3cc(C)c(C)cc3s2)cc1,105,/,/,9
Cn1c(C(=O)N2CCCCC2)cc2sccc21,104,101,93,/
COc1ccc(Cl)cc1S(=O)(=O)NC1CCCC1,104,98,99,2
CCn1c(=O)c(C(=O)Nc2cc(OC)c(OC)c(OC)c2)nc2ccccc21,104,121,86,-34
Cc1cc(C)n(CCCNC(=O)CSc2ccc(S(=O)(=O)N(C)C3CCCCC3)cn2)n1,/,66,89,-29
# (continued)
SMILES,GIV Gai3 FP,Sa growth 42C,Sa growth 42C second temp,HCMV NEC inh
Cc1ccc(OCCn2cnc3ccccc3c2=O)cc1,/,101,93,7
CC(C)Oc1ccc(C(=O)Nc2ccc3c(c2)CCCN3S(=O)(=O)c2ccccc2)cc1,110,/,/,11
CCN(CC)c1ccc(C(=O)N/N=C2\CC3CC=CC23)cc1 (configuration not stated),/,91,93,-2
NCC(O)C(O)C(O)c1cnn(-c2ccccc2)n1 (configuration not stated),/,99,97,-10
COc1ccc(CNc2ncnc3onc(C)c23)cc1,101,90,95,/
O=C(NC1CCCc2ccccc21)C1CCN(c2ccc(-c3ccccc3)nn2)CC1 (configuration not stated),105,/,/,-30
O=C(/C=C(\O)c1ccc(Cl)cc1)C(F)(F)F,102,-0.1*,-0.4*,9
Cc1cc2c(cc(C(=O)N3CCC(C(=O)N4CCCC4)CC3)n2Cc2c(F)cccc2Cl)o1,99,97,89,-8
